From PubChem BioAssay
MT1-MMP act inh: MT1-MMP (human) activation inhibition; GFP/RFP ratio change, % at 20 µM; 360,000 compounds, 0.061% hits; HT1080 RFP-PRO-GFP cells, GFP/RFP ratio fluorescence, overnight; percent of plate control window, DMSO zero; P50281; AID 651647;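 active means GFP/RFP ratio change of at least 30% with cell ATP level not reduced by more than half and red fluorescence within 50% of control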; further: strong numbers were not always called active
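Test system: HT1080 RFP-PRO-GFP cells; Benchmarks: DMSO and RFP-L50D-GFP cell wells; Timing: cells overnight before dosing, compound overnight, 37 °C, 5% CO2; Compound: one 20 µM compound dose with 1% DMSO; Read-out: GFP/RFP fluorescence ratio.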
Env fusion inh: inhibitors of HIV Env-mediated cell fusion | HeLa-JRFL Env/CEM21 cell fusion, luciferase | 360,000 compounds, 1.1% hits | inhibition, % at 12.3 µM | AID 651610;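 active means mean replicate inhibition score of at least 50 and every replicate individually at or above 50; inconclusive means only one of the two criteria met; inactive means mean below 50 and not all replicates reaching 50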;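 further: 0% = plate neutral controls and 100% = maraviroc near 300 nM; one replicate is shown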
MT1-MMP act inh RFP: also measured in MT1-MMP act inh; calls as there; RFP signal change, %; measured here: RFP expression control read;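 0 = vehicle wells; hits needed this value within 50% of zero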
* marks the source's active call; other numbers are inactive results; i = inactive; ? = inconclusive; [ ] = dose if it differs, or a comment. Only part of the results is shown. The share of hits here may be higher or lower than overall.

SMILES	MT1-MMP act inh	MT1-MMP act inh RFP	Env fusion inh
O=C(NCCN1CCOCC1)c1ccc(NC(=O)c2ccc(Br)o2)cc1	2	-1	21
COc1ccc(SC2=C[C@@]3(O)CC[C@@H](O)[C@@](Sc4ccc(OC)cc4)(C2=O)[C@H]3O)cc1	0	-11	41
COc1ccc(C(=O)NCC[N+](C)(C)C)cc1	7	5	-1
Cc1nc(CN2CCN(S(=O)(=O)c3c(Cl)cc(Br)cc3Cl)CC2)cs1	-2	0	-42
COc1ccc(C2c3cc4c(cc3OC(NNC(N)=O)C2C)OCO4)cc1 (stereo not given)	-6	-2	19
O=C(NN=Cc1cc(Cl)ccc1[N+](=O)[O-])c1cccc2ccccc12	1	-1	-11
Cc1cnc(-c2nc3ccccc3n2C(C)C(=O)Nc2c(C)cccc2C)cn1 (stereo not given)	0	0	8
Cc1cc2nc(-c3cccc(Cl)c3)c(Cc3ccsc3)n2c(C)c1Br	3	3	8
Clc1cccc(Cc2c(-c3ccco3)nc3c4ccccc4ccn23)c1	-7	-1	7
CC(C)c1ccc(Nc2n[nH]c(=S)s2)cc1	4	1	-56
CC(=NNC(=S)SCc1ccccc1)c1ccccn1	0	-6	79*
COC(=O)[C@]12CCCCC=C1N(Cc1ccc3c(c1)OCO3)C(=O)[C@H](CC(=O)NCC1CCCCC1)C2	-6	-5	-52
Cc1ccc2nc(-c3ccccc3)c(Cc3ccsc3)n2c1	2	-6	-15
CC(C)[C@@H]1Cc2[nH]c(=S)[nH]c(=O)c2[C@H](C)O1	7	8	32
CC(C)CN(C(=O)C1CCCO1)c1c(N)n(CC(C)C)c(=O)[nH]c1=O (stereo not given)	0	0	1
NCc1csc(Nc2ncccn2)n1	3	5	-14
CCOc1ccccc1C=NNC(=O)c1cccc2ccccc12	0	2	i
CCC(C(=O)N1CCN(Cc2ccc3c(c2)OCO3)CC1)n1nnc2ccccc2c1=O (stereo not given)	-1	1	3
O=C1NC2c3c(Cl)sc(Cl)c3C(=O)C2O1 (stereo not given)	-5	3	34
CC(C)(C)C(C(=O)NC1CCCC1)N1CCN(c2ncccc2C#N)CC1 (stereo not given)	-15	1	10
c1ccc(C(=NNc2nc3ccccc3s2)c2ccccn2)cc1	-210	-18	37
O=C(Nc1csnn1)OCc1ccccc1	2	3	-70
Cc1cccc(N2CCN(C(C(=O)NCc3ccccc3)c3ccco3)CC2)c1C (stereo not given)	-7	-8	14
COC1OC(O)C(NC(=O)C(F)(F)F)CC1O (stereo not given)	-1	1	-219
COc1ccc(C2=Cc3ccccc3C(CC(=O)C3CC3)N2c2ccc(-c3cc(OC)c(OC)c(OC)c3)cc2)cc1 (stereo not given)	2	4	-27

The results go on:
SMILES	MT1-MMP act inh	MT1-MMP act inh RFP	Env fusion inh
COC(=O)[C@@]1(Cc2ccc(OC)cc2)[C@H]2c3cc(C(=O)N4CCCC4)n(Cc4cc(C)n(C)n4)c3C[C@H]2CN1C(=O)c1ccccc1	-1	0	-56
O=C1NC[C@@H](CCCCN2C[C@H](Cc3ccc(O)cc3)N(CC3CCCCC3)C(=O)C2=O)N(CC2CCCCC2)C1=O	7	4	-53
CCCCNC(=O)c1nc(-c2ccccc2)oc1-c1ccc(Cl)cc1	-3	-4	17
COc1cc2c(c(OC)c1OC)-c1ccc(SC)c(=O)cc1C(NC(=O)c1ccccc1)CC2 (stereo not given)	24	5	-235
COc1ccc(C2C3=C(CC(C)(C)CC3=O)Oc3ncn4nc(-c5ccccc5)nc4c32)cc1 (stereo not given)	-1	-8	-7
COC(=O)[C@]12CCCCC=C1N(Cc1ccc(Cl)cc1Cl)C(=O)[C@H](CC(=O)N1CCCCC1)C2	-17	-20	3
COc1ncnc2c1ncn2CCCN(CCCc1ccccc1)CCCn1cnc2c(OC)ncnc21	4	5	-24
CC(C)n1nnnc1C1c2ccccc2C(=O)N1CCCn1ccnc1 (stereo not given)	4	6	9
COC(=O)[C@@]12C[C@@H](CC(=O)NCc3ccc(C)o3)C(=O)N(Cc3cccc4ccccc34)C1=CCC(C)(C)C2	-9	-16	?
O=C1NC[C@@H](CCCCN2CCN(CCc3ccc(O)cc3)C(=O)C2=O)N(CCc2ccc(O)cc2)C1=O	5	7	-7
CCOC(=O)[C@]12CCC=C1N(Cc1ccc3c(c1)OCO3)C(=O)[C@H](CC(=O)NCc1ccccc1)C2	-2	-1	-8
COc1ccccc1CNC(=O)C[C@H]1CC[C@@H]2[C@H](COC[C@H](O)CN2Cc2ccc3c(c2)OCO3)O1	3	0	-13[16.7 µM]
COc1ccc(N2CCN(C(=O)C(=O)c3cc(OC)c4ccccc4c3)CC2)cc1	0	-17	19
O=C(C(O)c1ccccc1)N1CCN(S(=O)(=O)c2ccc(OC(F)(F)F)cc2)CC1 (stereo not given)	1	1	20
O=C1NC[C@H](CCCCN2CCN(CCc3ccc(O)cc3)C(=O)C2=O)N(CCc2ccc(O)cc2)C1=O	0	0	23
CC(=O)N/C(=C\c1ccccc1)C(=O)OCC(=O)Nc1cc(S(=O)(=O)N(C)C)ccc1Cl	7	-6	5
COc1ccc(-c2cc(C(=O)N3CCCCCC3)c3ccccc3n2)cc1	5	0	12
CC(C)c1ccc(CN2CCC(n3nccc3NC(=O)C3CCCC3)CC2)cc1	9	-1	0
CCOC(=O)[C@]12CCCC=C1N(Cc1cccc3ccccc13)C(=O)[C@H](CC(=O)NCCCOC)C2	0	-3	-67
COc1cccc(-c2c(-c3ccccc3OC)ncn2Cc2cccc(-c3ccccc3)c2)c1	6	-13	21
Nc1nc(N)c(N=O)c(Nc2cccc(Cl)c2)n1	-5	4	2
COC(=O)[C@@]12C[C@@H](CC(=O)NCc3ccc(C)o3)C(=O)N(Cc3ccc4c(c3)OCO4)C1=CCC(C)(C)C2	1	-2	5
COC(=O)[C@@]12C[C@@H](CC(=O)NCc3cccs3)C(=O)N(Cc3ccc4c(c3)OCO4)C1=CCC(C)(C)C2	1	4	-15
Nc1sccc1C(=O)NCCN1CCOCC1	3	7	-4
CN(C)C(=S)N=c1ssc(=S)n1Cc1ccccc1	0	-7	-167

Taken from above:
For MT1-MMP act inh RFP, COC(=O)[C@]12CCCCC=C1N(Cc1ccc(Cl)cc1Cl)C(=O)[C@H](CC(=O)N1CCCCC1)C2 reads -20
For MT1-MMP act inh RFP, COc1ccc(C2C3=C(CC(C)(C)CC3=O)Oc3ncn4nc(-c5ccccc5)nc4c32)cc1 (stereo not given) reads -8
For MT1-MMP act inh RFP, CCOC(=O)[C@]12CCCC=C1N(Cc1cccc3ccccc13)C(=O)[C@H](CC(=O)NCCCOC)C2 reads -3
For MT1-MMP act inh RFP, CC(C)c1ccc(CN2CCC(n3nccc3NC(=O)C3CCCC3)CC2)cc1 reads -1
For MT1-MMP act inh, COC(=O)[C@@]12C[C@@H](CC(=O)NCc3ccc(C)o3)C(=O)N(Cc3ccc4c(c3)OCO4)C1=CCC(C)(C)C2 reads 1

Continued:
SMILES	MT1-MMP act inh	MT1-MMP act inh RFP	Env fusion inh
Cc1cccc(C)c1-n1nnnc1C(c1ccnc2ccccc12)N1CCN(c2ccccc2F)CC1 (stereo not given)	6	3	-22
C#CCN1CCc2onc(-c3ccc(Br)cc3)c2C1=O	2	-7	5
Cc1ccc(S(=O)(=O)N(CCC(=O)N2CCOCC2)c2ccccc2)cc1	-2	5	3
Cn1c2c(c(=O)n(C)c1=O)CS(=O)c1ccccc1N2 (stereo not given)	6	14	1
COC(=O)[C@@]1(Cc2ccc(F)cc2)[C@H]2c3cc(C(=O)N(C)C)n(Cc4ccc(C)o4)c3C[C@H]2CN1C(=O)c1ccccc1	-5	-12	-68
O=[N+]([O-])c1cc(C=NN2CCCCCC2)ccc1Cl	1	-2	-64
Cc1ccc(S(=O)(=O)N2CCN(C(=O)C(O)c3ccccc3)CC2)cc1 (stereo not given)	0	5	5
CN1CCN(C(=O)c2cc3c(c(-c4cccc(-c5cccnc5)c4)n2)[C@@H](CCO)N(C(=O)CC2CC2)C3)CC1	-5	5	12[16.7 µM]
COc1ccc(/C=C2/SC(=S)N(CCC(=O)Nc3cccnc3)C2=O)cc1OC	9	0	-20
COC(=O)[C@]12CCCCC=C1N(Cc1ccco1)C(=O)[C@H](CC(=O)NCc1cccc(C(F)(F)F)c1)C2	2	-4	-9
COc1ccc(Cc2c(-c3ccc(F)cc3)nc3cc(C)c(Br)c(C)n23)c(C)c1	0	0	19
COC(=O)[C@]12CCCCC=C1N(Cc1ccc3c(c1)OCO3)C(=O)[C@H](CC(=O)N1CCCCC1)C2	4	0	1
CC(C)(C)n1nnnc1C(c1cc2ccccc2o1)N(Cc1ccccc1)Cc1ccccc1 (stereo not given)	14	-27	38
O=C(O)CC1(CC(=O)Nc2nccs2)CCCCC1	7	5	1
O=C(O)c1cc(N2CCCC2)ccn1	2	7	-7
COc1ccc(-c2nc3ccccc3n(CC(C)C)c2=O)cc1	6	8	2
COc1ccccc1N1CCN(C(=O)C(=O)c2cccc([N+](=O)[O-])c2)CC1	2	6	-3
CCOC1(OCC)OC(c2ccccc2)=C(C#N)C(C=Cc2ccccc2)C1(OCC)OCC (stereo not given)	-9	-14	11
C[C@@H]1COc2cc(N3CCC[C@@H]3CO)ccc2S(=O)(=O)N1	4	8	29
CC(c1nc2ccccc2[nH]1)n1c(=O)c(-c2cccnc2)nc2ccccc21 (stereo not given)	-2	4	1
O=c1c(-c2cccs2)nc2ccccc2n1C(c1ccccn1)c1nc2ccccc2[nH]1 (stereo not given)	0	0	6
CC(NNC(=S)N1CCN(c2ccccn2)CC1)c1nccc2ccccc12 (stereo not given)	0	-7	-20
CCOC(=O)[C@]12CCCC=C1N(Cc1ccco1)C(=O)[C@H](CC(=O)NCc1cccc(C(F)(F)F)c1)C2	0	-3	25
Cc1cccc(NS(=O)(=O)c2ccc(C)c(NS(=O)(=O)c3cccs3)c2)c1	-4	2	10
COC(=O)/C=C1\OCc2cc(OC)c(OCc3ccccc3)cc21	2	2	-7

Fetched one by one from above:
SMILES	MT1-MMP act inh	MT1-MMP act inh RFP	Env fusion inh
CCOC(=O)[C@]12CCCC=C1N(Cc1cccc3ccccc13)C(=O)[C@H](CC(=O)NCCCOC)C2	0	-3	-67
Cc1cnc(-c2nc3ccccc3n2C(C)C(=O)Nc2c(C)cccc2C)cn1 (stereo not given)	0	0	8
COc1ccccc1CNC(=O)C[C@H]1CC[C@@H]2[C@H](COC[C@H](O)CN2Cc2ccc3c(c2)OCO3)O1	3	0	-13[16.7 µM]

(list continues)
SMILES	MT1-MMP act inh	MT1-MMP act inh RFP	Env fusion inh
CCS(=O)(=O)N1Cc2cc(C(=O)NCC3CC3)nc(-c3cccc(-c4cccnc4)c3)c2[C@@H]1CCO	-3	2	-4
COC(=O)C1=CN(c2ccc(OC)cc2)C(N)=C(C#N)C1c1ccccc1F (stereo not given)	-2	-4	0
COC(=O)[C@@]1(C(C)C)N=C(c2cc(OC)c(OC)c(OC)c2)[C@]2(O1)C(=O)N(Cc1ccc(OC)cc1)c1ccc(Br)cc12	3	-4	-87
O=C1NC[C@H](CCCCN2CCN(CC3CCCCC3)C(=O)C2=O)N(CCc2ccccc2)C1=O	5	2	-9
CCN1CCN(c2oc(-c3ccccc3C)nc2S(=O)(=O)c2ccccc2)CC1	-1	-1	12
CC1(C)Cc2cccc(OC(=O)NCCc3ccc(F)cc3)c2O1	6	4	-36
CC1(C(=O)NCc2ccccc2)CSCC(=O)N1CC(F)(F)F (stereo not given)	9	4	2
CO[C@@H]1CN(C)C(=O)c2cc(NC(=O)NC3CCCCC3)ccc2OC[C@@H](C)N(CCc2ccccc2)C[C@H]1C	-5	-3	29[16.7 µM]
N#Cc1c(N)[nH]c(C(=O)c2ccccc2)c1-c1ccc(Cl)cc1	5	-2	-107
ON=C1c2ccccc2-c2ccc(O)cc21	-1	-7	-5
N#CC1C(=O)NC(=O)C(C#N)C12CCCC2 (stereo not given)	0	5	6
COc1cccc(C2=Cc3ccc(F)cc3C(CC(C)=O)N2c2ccc(C#CC3(O)CCCCC3)cc2)c1 (stereo not given)	-10	-11	-65
CCCCc1ccc(NS(=O)(=O)c2cccc(C(=O)N3CCNC(=O)C3)c2)cc1	3	-2	-8
CN(C)c1ncnc2c1C(c1ccccc1)C(C)(C)O2 (stereo not given)	1	-2	10
COC(=O)c1c(-c2ccccc2)[nH]c(-c2nccc3ccccc23)c1C(=O)OC	-6	3	-6
Cc1ccc(C)c(C(Nc2ccccc2)c2ccc3ccc(C)nc3c2O)c1 (stereo not given)	8	-10	21
Cc1cccc(C)c1-n1nnnc1C(c1ccnc2ccccc12)N1CCN(CCN(C)C)CC1 (stereo not given)	2	6	-30
COCCCn1c(=N)c(C(=O)NCc2ccc3c(c2)OCO3)cc2c(=O)n3cccc(C)c3nc21	0	0	-8
CC(=O)Nc1cccc(OCc2ccc([N+](=O)[O-])cc2)c1	7	-1	-20
COc1cccc(C=C(C#N)C(=O)c2ccccc2)c1	-5	-4	-14
CCC(=O)N1Cc2cc(C(=O)Nc3nccs3)nc(-c3cccc(-c4ccccc4OC)c3)c2[C@H]1CCO	0	1	-4[16.7 µM]
CCN(c1ccccc1)S(=O)(=O)c1ccc(OC)c(NC(=O)c2cc(Cl)ccn2)c1	0	2	0
Cc1cc(C)n2c(NCc3ccccc3)c(CC(C)C)nc2n1	-1	1	-15
O=C1OCC(O)=C1Cc1ccccc1	1	-1	-1
